# Assay outcomes deposited in PubChem by National Center for Advancing Translational Sciences (NCATS).
# Menin-MLL FL inh = menin-MLL binding inhibition, fluorescein peptide. Fluorescence polarization, fluorescein-MLL peptide displacement from menin. FP activity change, % at 61.4 µM. 290,000 tested, under 10 active. AID 1766; inconclusive = falling polarisation curve, or a change in total fluorescence; inactive = total fluorescence flat and polarisation flat or rising; no compound was filed as active; the % refers to the polarisation; negative = inhibition;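 also: % of control where 0% means no effect; inhibitors lower the polarisation; unlabelled MLL peptide was the positive control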
# ClpP mod = qHTS Assay for Activators of ClpP; AID 651965, 2013; actives 1.9% (n = 340,000); Potency, µM (series often up to 57.5 µM), for the others: at the top dose activity change, negative = active; purified B. subtilis ClpP, FRET peptide cleavage, 20 min; active = well fitted falling curve with a large enough effect; inconclusive = small, poorly fitted or top-dose-only effect; inactive = no such curve, though single readings can be large or run the other way; also: potency is read from the fitted curve at half-maximal effect; the source files actives as falling curves though it sought activators and does not explain the sign; nearly all actives have a fitted effect of over 65% in size; many hits overshoot -100%
# Target sequence (P80244 whole entry, looked up): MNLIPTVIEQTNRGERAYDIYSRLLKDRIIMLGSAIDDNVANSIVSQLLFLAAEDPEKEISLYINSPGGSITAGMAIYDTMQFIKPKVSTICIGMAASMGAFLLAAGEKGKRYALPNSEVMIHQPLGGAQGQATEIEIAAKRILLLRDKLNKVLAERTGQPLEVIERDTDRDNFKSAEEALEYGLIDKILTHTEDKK
#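 ClpP 10 microg/mL final, pH 8 Tris/KCl buffer with BSA, glycerol, Tween-20; compound pinned in; FRET-FV substrate; RT 20 min; Ex320/Em430; ΔFRET vs ADEP 5.8 microM, DMSO, no enzyme.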
# gsp agonist = activates gsp, the McCune-Albright syndrome mutation | Potency, µM (titrated, usually from 76.9 µM), for inactives: top-dose activation (cAMP increase), hits mostly activators | gsp mutant cells, cAMP HTRF, 30 min; control for the full effect not named in the record | actives 0.13% (n = 340,000); active = well fitted activation curve with a large enough effect; inconclusive = small, poorly fitted or top-dose-only effect, or another doubt; inactive = no such curve, though single readings can be large or run the other way; cell line not stated here;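 also: phosphodiesterase inhibitor Ro 20-1724 added with compounds to block cAMP breakdown; potency is read from the fitted curve at half-maximal effect; nearly all actives have a fitted effect of over 60% in size; about a fifth of the inactives were tested at one dose only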
#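 Cells stably selected in G418 were plated at 2000/well, grown 16-24 hr, then given compounds in DMSO with the PDE inhibitor […] (300 uM solution added) for 30 min at 37C; cAMP was read by HTRF.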
# TRPML1 blocker = inhibitors of human TRPML1 channel; Q9GZU1; TRPML1-inducible cells, Ca2+ dye fluorescence, FDSS; stronger effect = lower value; inhibition of EC80 agonist-evoked calcium signal; activity change, negative = inhibition, % (no concentration beside the values); actives 0.02% (n = 390,000); AID 624415; in the data active means activity change below about -50%; inconclusive means about -30% to -50%; inactive means above about -30%;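 also: stimulus is agonist 54-4 at its EC80 concentration; % is scaled to controls: 0 for no effect and ±100 for the full control effect; compound concentration not given in the record; the text of the record puts the active cut at -80%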
# Target sequence (Q9GZU1 whole entry, looked up): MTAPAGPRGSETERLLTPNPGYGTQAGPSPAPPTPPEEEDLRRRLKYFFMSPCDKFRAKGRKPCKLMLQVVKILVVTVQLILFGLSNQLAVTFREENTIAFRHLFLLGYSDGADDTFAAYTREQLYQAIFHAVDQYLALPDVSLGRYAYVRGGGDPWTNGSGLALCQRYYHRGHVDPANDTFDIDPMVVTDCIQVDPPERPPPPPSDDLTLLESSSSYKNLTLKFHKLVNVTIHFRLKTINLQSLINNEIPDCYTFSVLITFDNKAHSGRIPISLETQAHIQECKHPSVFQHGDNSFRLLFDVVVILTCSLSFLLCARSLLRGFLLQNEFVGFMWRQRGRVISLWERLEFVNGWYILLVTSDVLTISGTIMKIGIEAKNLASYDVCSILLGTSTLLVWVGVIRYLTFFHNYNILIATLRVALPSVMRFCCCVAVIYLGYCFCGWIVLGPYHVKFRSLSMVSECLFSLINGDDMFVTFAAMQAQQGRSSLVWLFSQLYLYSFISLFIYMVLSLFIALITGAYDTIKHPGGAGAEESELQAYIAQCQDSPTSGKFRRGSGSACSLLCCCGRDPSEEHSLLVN
#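 Calcium fluorescence in TRPML1-DL cells induced overnight with Tet: a 110 s read after compound pin addition, then a 110 s antagonist read after challenge with 54-4 at 4 uM final (EC80).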
# gsp antag = antagonists of gsp mutant (McCune-Albright syndrome); gsp-mutant cells, cAMP HTRF, 30 min; control for the full effect not named in the record; Potency, µM (doses to about 76.9 µM), inactives show at the top dose activity change, negative = inhibition, most hits filed as inhibitors; actives 0.4% (n = 340,000); active = falling curve of any shape with a large fitted effect; inconclusive = falling curve, mostly with a smaller effect; inactive = flat or rising curve; cell line not stated here;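 also: intracellular cAMP measured with PDE inhibitor Ro 20-1724 present during compound exposure; potency is read from the fitted curve at half-maximal effect; % is scaled to controls: 0 for no effect and ±100 for the full control effect; nearly all actives have a fitted effect of over 65% in size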
#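 Cells in G418 medium, seeded 16-24 h, 37C; buffer exchange to DPBS + 1 mM CaCl2, 0.5 mM MgCl2, 0.05% BSA; cpds in DMSO + […] (300 uM stock), 30 min 37C; HTRF cAMP detection.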
# TRPML1 agonist = human mucolipin-1 channel agonism. Q9GZU1. TRPML1-expressing cells, Ca2+ dye fluorescence, FDSS; host cell line not named in the record; reference of the full effect not given here. activation, % (test concentration not listed). actives 0.12% (n = 410,000). AID 624414; in the data active = activation above about 50%; inconclusive = about 30% to 50%; inactive = below about 30%; also: 0% is about no effect; the text of the record puts the active cut at 80%
#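 Cells: TRPML1-DL, 1X Tet inducer, ~16 h at 37 degrees C/5% CO2. Dye: ABD Ca8 no-wash + quencher, 45-90 min RT. Read: 10 s baseline, compound add, 110 s agonist phase; 54-4 EC80 (4uM final), 110 s antagonist phase.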
# * hit, by the source's call; ? = inconclusive; . = no result given; & = joins results of further samples; [ ] = remark or other dose.
SMILES,Menin-MLL FL inh,ClpP mod,gsp agonist,TRPML1 blocker,gsp antag,TRPML1 agonist
CCc1nnc(NC(=O)C2CC(=O)N(CCc3ccc(F)cc3)C2)s1 (centres undefined),6.0,.,-13%,-2,1%,0.3
CCOc1ccc(NC(=O)Cn2cc(C(=O)c3ccccc3)c(=O)c3cc(OC)ccc32)cc1,.,-7.3%,.,8,.,-0.1
Cc1ccccc1Cn1nnc2c1C(=O)c1ccccc1C2=O,.,-1.7%,5%,-12,6%,-0.4
CC(C)(C)NC(=O)C1CCC(CNc2c(N3CCCCC3)c(=O)c2=O)CC1 (centres undefined),2.4,-1.4%,7%,-10,4%,-0.3
Cc1ccc(N2C(=O)C(F)(F)C2c2ccccc2)cc1 (centres undefined),2.8,-0.9%,-33%,-20,-12%,63*
CC(C)Oc1ccc(C(=O)NC2(C(F)(F)F)NC(=O)N(CCCc3ccccc3)C2=O)cc1 (centres undefined),3.8,1.9%,1%,3,?,3.3
COc1ccc2[nH]cc(CCNC(=O)Nc3cccc(F)c3)c2c1,.,-8.1%,.,-10,.,1.3
Cc1ccc2nsnc2c1S(=O)(=O)NCCc1c(C)[nH]c2ccc(F)cc12,4.6,0.7%,-29%,-4,-20%,-0.4
CC(=O)n1cc(C2C(=O)CCCC2=O)c2ccccc21,2.7,1.4%,?,18,6%,-0.5
O=[N+]([O-])c1ccc(Cl)c(-c2ccc(/C=N/c3c(-c4ccco4)nc4ccccn34)o2)c1,0.8,0.5%,1%[15.4 µM],7,-1%,1.5

# Taken from the results shown for reference:
SMILES,Menin-MLL FL inh,ClpP mod,gsp agonist,TRPML1 blocker,gsp antag,TRPML1 agonist
COc1ccc2[nH]cc(CCNC(=O)Nc3cccc(F)c3)c2c1,.,-8.1%,.,-10,.,1.3
Cc1ccc2nsnc2c1S(=O)(=O)NCCc1c(C)[nH]c2ccc(F)cc12,4.6,0.7%,-29%,-4,-20%,-0.4
CC(=O)n1cc(C2C(=O)CCCC2=O)c2ccccc21,2.7,1.4%,?,18,6%,-0.5
O=[N+]([O-])c1ccc(Cl)c(-c2ccc(/C=N/c3c(-c4ccco4)nc4ccccn34)o2)c1,0.8,0.5%,1%[15.4 µM],7,-1%,1.5

# Continued.
SMILES,Menin-MLL FL inh,ClpP mod,gsp agonist,TRPML1 blocker,gsp antag,TRPML1 agonist
CN1CCN(C(=S)NC(=O)c2ccc(-c3ccccc3)cc2)CC1,0.1,0.2%,-9%,6,12%,1.1
O=C(Nc1ccc(Br)cc1)c1ccc2c(c1)OCO2,-1.9,-5.0%,22%,18,14%,0.7
Cc1ccn2cc(CCNS(=O)(=O)c3ccc4c(c3)OCCO4)nc2c1,2.5,-4.2%,?,4,5%,0.0
Cc1cc(C)c(S(=O)(=O)N2CCC(C(=O)OCc3c(C)noc3C)CC2)c(C)c1,.,-0.2%,-19%,-3,-16%,2.2
CCC(=O)Nc1c(C(=O)Nc2ccc3c(c2)OCCO3)oc2ccccc12,0.1,-3.5%,12%[15.4 µM],13,-33%,1.2
CCCCNC(=S)Nc1ccc(SC(F)F)cc1,-0.2,.,0%[15.4 µM],15,0%,-0.1
COc1cc(OC)c(OC)cc1/C=C1\Oc2cc(OS(C)(=O)=O)ccc2C1=O,?,.,-1%,-11,5%,24
COC(=O)C[C@H]1C[C@@H]2c3cc(NC(=O)CN(C)C)ccc3O[C@@H]2[C@H](CO)O1,.,-2.6%,?,12,.,0.5
Cc1ccc(S(=O)(=O)Nc2cccc3ncccc23)s1,0.9,0.9%,-5%,-7,-16%,-0.2
Cc1ccc(/C=N/NC(=O)c2ccc3nc[nH]c3c2)s1,-0.1,-4.7%,-28%,-4,-20%,-0.2
O=C(COc1ccc2ccccc2c1)NCC(=O)N/N=C/c1ccco1,-0.9,-3.2%,-17%,-1,7%,-0.2
Cc1cc(Cl)ccc1OCC(=O)N/N=C1\CC2C=CCC12 (centres undefined),3.3,-1.9%,?,-6,-2%,-0.6
COc1ccc(CCNC(=O)Cn2nnc(-c3ccc(N4CCOCC4)cc3)n2)cc1OC,0.1,-3.0%,-4%,-1,10%,-0.1
Cn1ncc(Cl)c1C(=O)Nc1nnc(C2CC2)s1,.,0.2%,-2%,-11,-6%,-0.3
COc1ccc(N2CCN(S(=O)(=O)c3ccc(C4CCCCC4)cc3)CC2)cc1,.,-0.2%,.,-15,.,1.3
O=C(NNS(=O)(=O)c1ccc(CCCl)cc1)C(O)(c1ccccc1)c1ccccc1,-2.9,0.6%,9%,26,-14%,-0.6
C=C1c2ccccc2NC(=O)N1c1ccc(OC)cc1,1.0,-5.5%,34%,-10,4%,0.5
CCCCNC(=O)c1nc2ncc(Br)cn2n1,3.3,14%,4%,11,12%,0.4
CCn1nnc(-c2ccccc2NC(=O)c2cc(OC)c(OC)c(OC)c2)n1,-2.7,39%,7%,17,5%,2.3
CCCCCCC1CC(CSC(=N)N)OC1=O (centres undefined),5.1,-0.9%,-32%[inhibitor],17,6%,0.2

# A second format for some results above:
smiles | Menin-MLL FL inh | ClpP mod | gsp agonist | TRPML1 blocker | gsp antag | TRPML1 agonist
CC(=O)n1cc(C2C(=O)CCCC2=O)c2ccccc21 | 2.7 | 1.4% | ? | 18 | 6% | -0.5
Cc1ccn2cc(CCNS(=O)(=O)c3ccc4c(c3)OCCO4)nc2c1 | 2.5 | -4.2% | ? | 4 | 5% | 0.0
COc1ccc(CCNC(=O)Cn2nnc(-c3ccc(N4CCOCC4)cc3)n2)cc1OC | 0.1 | -3.0% | -4% | -1 | 10% | -0.1

# Next section
SMILES,Menin-MLL FL inh,ClpP mod,gsp agonist,TRPML1 blocker,gsp antag,TRPML1 agonist
COc1ccc(N2CCN(C(=O)CCNS(=O)(=O)c3cc(Br)cnc3N)CC2)cc1,-7.9,-9.0%,-56%[inhibitor],6,-4%,1.2
COc1ccc(C2(CNC(=O)C(=O)Nc3ccc(F)cc3)CCCC2)cc1OC,.,-0.9%,.,-14,.,-0.1
Cc1[nH]c2ccccc2c1/C=N/NC(=O)CNC(=O)Cc1ccccc1,.,-1.6%,0%,-5,10%,-0.3
COC(=O)C1=C(C(=O)c2ccccc2)C(c2cccs2)n2nnnc2N1 (centres undefined),1.6,0.7%,-29%,-24,8%,1.4
COc1ccc(CCNC(=O)c2cn(C)c3ccc(S(=O)(=O)N(C)C4CCCCC4)cc3c2=O)cc1OC,.,3.0%,.,13,.,0.9
COc1ccc(S(=O)(=O)N2CCOCC2)cc1NC(=O)COC(=O)c1oc2ccccc2c1C,.,-2.8%,19%,-14,2%,-0.5
O=C(O)CN1CCCCC1,-4.5,.,10%[15.4 µM],1,24%,-1.2
Cc1cccc(-c2nnc(-c3cccc(NC(=O)Cc4cccs4)c3)o2)c1,-0.4,?,25%,-8,?,2.8
Cc1ccc(-c2n[nH]c(=S)n2/N=C/c2ccc(C)o2)cc1,5.4,-2.2%,-59%[inhibitor],-27,-3%,1.5
COC(=O)COc1ccc(C(C2C(=O)CC(C)(C)CC2=O)C2C(=O)CC(C)(C)CC2=O)cc1,.,1.0%,8%,22,-2%,3.0
C/C(=N\NC(=O)c1ccccc1-n1cccc1)c1ccccn1,.,-0.5%,-19%,11,.,-0.4
Oc1ccc(Br)cc1CNc1cnc2ccccc2c1,-0.8,4.5%,-47%[inhibitor],-10,?,-0.9
Cc1oc(-c2ccccc2F)nc1CSCC(=O)NCc1ccccc1,.,-17%,.,-2,.,1.5
COc1ccc(C(=O)OCC(=O)N2C(C)CCCC2C)cc1S(=O)(=O)N1CCOCC1 (centres undefined),.,-2.8%,-9%[15.4 µM],-4,1%,-0.4
Fc1ccc(-c2nnc(-c3ccc(Cl)cc3)o2)cc1,-0.8,-16%,14%,21,-4%,2.9
O=C(NCCc1ccc(Cl)cc1)c1cc2c(s1)-c1ccccc1OC2,.,4.4%,.,6,.,1.9
CCOC(=O)C(NC(C)=O)(Nc1ccc(F)cc1)C(F)(F)F (centres undefined),-1.2,20µM*,-6%,-14,7%,0.5
Cc1ccc(OC(=O)c2sc(Cl)nc2C)cc1C,3.4,0.9%,8%,31,-10%,0.7
CCCOCC1CC2(CC(C)(c3csc(N)n3)OC2=O)C(=O)O1 (centres undefined),-2.3,0.8%,8%,10,12%,0.1
O=C(Nc1cccc(F)c1)c1ccccc1,1.7,-0.2%,4%,5,4%,-0.7
Cc1c(C(c2ccc(C(=O)O)cc2)c2c(C)n(C)n(-c3ccccc3)c2=O)c(=O)n(-c2ccccc2)n1C,-24,-1.3%,15%[15.4 µM],-7,-1%,-1.2
CC(=O)Nc1ccccc1-c1nn[nH]n1,4.7,-5.2%,-2%,27,1%,0.7
Cc1ccccc1CNS(=O)(=O)c1csc(C(N)=O)c1,.,2.3%&-0.3%,-29%,-8&-2,8%,-0.1&-1.0
Brc1ccc2[nH]c3c(c2c1)CCC3,2.4,0.8%,5%[15.4 µM],4,-15%,-0.3
Cc1ccc(NC(=O)c2ccc(NCCCN3CCC(C)CC3)c([N+](=O)[O-])c2)cc1F,?,.,-4%[15.4 µM],-17,7%,0.1
CC(C)(C#N)N([O-])C=C[N+](=O)C(C)(C)C#N,-0.6,-1.4%,-24%,0,11%,1.9
O=C(NCc1nc2ccccc2[nH]1)c1cccc(Cl)c1,.,-2.1%,.,6,.,0.7
